Bioassay records: PubChem BioAssay, several laboratories
LANA-H2B inh – blocks KSHV LANA binding to histone H2A/H2B; Q9QR71; cell-free LANA-H2A/H2B peptide, fluorescence polarization; inhibition, % (test concentration not listed); hit rate 0.6% among 320,000; in the data active means inhibition mostly above about 10%, no sharp cut-off; inactive means mostly below about 6.7%;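 further: stock transfer was 7.5 nL into about 10 µL; 0% = median of vehicle wells and 100% = median of positive control wells; one replicate is shown; the record names a cut of 25% in any replicate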
UCH37 DUB inh – blocks the human deubiquitinase UCH37 | hit rate 0.33% among 330,000 | purified proteasome/UCH37, Ub-AMC cleavage fluorescence | AID 588478 | inhibition, % (no concentration beside the values) | Q9Y5K5;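 active means mean of two replicates above 20%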;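 further: 0% = compound-free wells with enzyme and 100% = wells lacking proteasome; stock transfer was 100 nL into about 20 µL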
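Test system – human UCH37 enzyme supplied as purified proteasome complex · Incubation – 30 min preincubation with enzyme, 25 min cleavage at room temperature · Detection – AMC fluorescence from Ub-AMC cleavage, excitation 355 nm, emission 460 nm · Benchmarks – no-proteasome wells (full inhibition) and compound-free wells (no inhibition)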
E coli growth – E. coli growth inhibition; Escherichia coli growth, OD600, 23 h; active compounds read low; OD600 absorbance (no concentration beside the values); hit rate 0.21% among 330,000;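 active means OD600 absorbance below the run mean of sample wells minus 3.6 SD, in any replicate, cut at about 0.56 in these data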;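 further: stock transfer was 300 nL into about 60 µL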
A1 inh – inhibitors of the anti-apoptotic protein A1, read as caspase activation; MEF A1-2A-BIM cells, Caspase-Glo 3/7 luminescence, 3 h; percent of clofoctol response, vehicle zero; hit rate 0.066% among 330,000; caspase activation, % (no concentration beside the values);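 active means over half of replicate activation scores above 10%, or exactly half above 10 with the replicate mean above 10; inconclusive means replicate mean below 10 yet half the replicates above 10; inactive means over half of replicates below 10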;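 further: wells of about 30 µL received 50 nL stock; many hits fall short of the cut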
Beta2AR agonist – activates human beta-2 adrenergic receptor causing internalization; P07550; Am2.2-beta2AR cells, FAP receptor internalization, flow cytometry; reference of the scale not given here; response, % (test concentration not listed); hit rate 0.43% among 340,000; AID 504454;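 active means response above a set limit, near 3 SD of response in nonfluorescent compounds, cut at about 42% in these data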;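 further: stock transfer was 100 nL into about 11 µL; a reference agonist was the positive control; negative values mostly stem from fluorescent compounds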
Target sequence (P07550 whole entry, looked up): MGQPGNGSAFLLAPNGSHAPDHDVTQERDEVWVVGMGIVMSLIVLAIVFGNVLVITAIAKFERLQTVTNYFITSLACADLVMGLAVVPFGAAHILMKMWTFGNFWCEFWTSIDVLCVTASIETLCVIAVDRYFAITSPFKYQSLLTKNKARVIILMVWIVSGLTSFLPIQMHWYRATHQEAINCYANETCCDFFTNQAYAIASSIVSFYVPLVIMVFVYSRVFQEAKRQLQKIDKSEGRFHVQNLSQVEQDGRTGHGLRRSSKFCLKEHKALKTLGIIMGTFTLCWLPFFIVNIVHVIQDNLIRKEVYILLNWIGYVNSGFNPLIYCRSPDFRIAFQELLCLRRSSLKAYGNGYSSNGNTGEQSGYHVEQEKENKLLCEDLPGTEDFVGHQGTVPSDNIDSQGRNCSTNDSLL
Vif TR-FRET – HIV-1 Vif–A3G interaction blockers – biochemical, TR-FRET, GST-Vif 1-94, biotin-A3G peptide, dose response retest, primary screen (AID 1117319); inhibition, %; hits with a dose series show IC50 in µM; TR-FRET GST-Vif / biotin-A3G peptide binding; higher % means a stronger effect; test concentration not given here; strong numbers were not always called active; hit rate 0.57% among 260,000;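 active means above the screen mean plus three standard deviations and confirmed in dose response; inconclusive means results disagree or hit not tested in dose response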;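 further: Vif residues 1-94 fused to GST binding biotinylated APOBEC3G peptide 110-148; 0% = full assay without inhibitor and 100% = GST in place of GST-Vif; retest series ran down from 100 µM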
HNF4A DNA FP – change in binding of human HNF4 alpha to DNA | HNF4a-FITC DNA binding, fluorescence polarization, 1 h | activity change, % at 10 µM | hit rate 0.3% among 360,000 | AID 1224865; in the data active means activity change above about 30%, passing the limit was not always enough;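 further: controls were the assay level and a saturating level of protein; the project sought stronger binding though the title names inhibitors; some compounds called inactive have numbers as strong as hits; positive values seem to mean higher polarization but the record does not say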
Target sequence (P41235 whole entry, looked up): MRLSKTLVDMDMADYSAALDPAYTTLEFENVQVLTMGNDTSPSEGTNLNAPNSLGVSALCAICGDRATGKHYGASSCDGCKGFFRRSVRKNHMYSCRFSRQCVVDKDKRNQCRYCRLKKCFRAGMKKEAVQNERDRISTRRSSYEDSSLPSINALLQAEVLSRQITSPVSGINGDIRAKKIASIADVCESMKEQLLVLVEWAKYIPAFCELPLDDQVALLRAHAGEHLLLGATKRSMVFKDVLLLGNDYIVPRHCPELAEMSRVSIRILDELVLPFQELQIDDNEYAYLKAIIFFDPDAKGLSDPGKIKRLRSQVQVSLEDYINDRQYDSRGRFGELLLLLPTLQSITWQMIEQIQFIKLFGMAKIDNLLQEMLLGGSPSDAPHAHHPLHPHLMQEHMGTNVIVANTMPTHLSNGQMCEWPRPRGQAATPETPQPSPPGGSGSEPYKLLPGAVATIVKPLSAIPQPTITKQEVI
Numbers without * were called inactive; u = inconclusive; x = no result given; & = joins results of further samples. The order is random; about 2.1% have a hit in one of these screens.

SMILES	LANA-H2B inh	UCH37 DUB inh	E coli growth	A1 inh	Beta2AR agonist	Vif TR-FRET	HNF4A DNA FP
Cc1[nH]c(=O)[nH]c(=O)c1S(=O)(=O)Nc1ccc(Oc2ccccc2)cc1	3.4	2.5	0.78	0.1	-5	17%	-3.1
Cc1nn(CCCC(=O)Nc2sc3c(c2C#N)CCC3)c(C)c1[N+](=O)[O-]	-0.6	8.3	0.66	0.8	11	1%	-0.1
O=C(NC1CC1)c1c[nH]c2ccc(S(=O)(=O)Nc3cccc(C(F)(F)F)c3)cc2c1=O	-3.4	4.0	0.61	0.2	-2	5%	-2.7
CCc1cc2c(=O)nc3n(c2s1)Cc1ccccc1/C3=C(/O)c1ccc(F)cc1	7.3	x	x	2.9	19	26%	-4.6
COc1ccccc1CN1CCN(C(c2ccccc2)c2ccccc2)CC1	-5.8	2.6	0.66	0.2	7	x	0.1
COc1ccccc1-c1nc2ccccc2c(=O)n1NC(=O)c1cccs1	-2.9	1.1	0.68	0.5	3	-1%	-0.3
Cc1cccc(-n2nnc(C(=O)NCc3ccco3)c2N)c1	-3.6	2.1	0.68	0.3	-10	6%	2.0
O=C(CNC(=O)c1ccco1)N=Nc1c(O)n(CCc2ccccc2)c2ccccc12	6.7	5.8	0.69	0.1	8	-4%	3.2
O=C(CCn1c(=O)oc2ccccc21)NC1=NCCS1	2.5	0.8	0.67	0.6	-2	2%	-1.3
CCN(CCCNC(=O)C1CCN(S(=O)(=O)c2cnc[nH]2)CC1)c1ccccc1	0.9	0.8	0.72	-2.0	1	0%	-0.7
O=S(=O)(/N=C(/Nc1ccccc1)c1ccccc1)c1cccs1	-1.5	3.6	0.69	-0.1	7	x	-0.1
O=c1c2ccccc2ncn1CCCCOc1ccccc1F	-0.6	1.3	0.66	-0.2	-4	x	-1.2
COc1cc(CO)ccc1OCC(=O)Nc1cccc2ccccc12	-1.9	0.3	0.69	0.1	11	x	1.9
CCOC(=O)c1c(NC(=O)c2ccc(N3C(=O)C4C5C=CC(C5)C4C3=O)cc2)sc2c1CCCC2 (stereo not given)	5.4	-186	0.76	0.5	2	0%	0.1
Cc1cc(C)n2nc(C(=O)OCC(=O)NNC(=O)c3ccccc3)nc2n1	-0.9	0.1	0.71	0.9	-4	-1%	1.9
NC(=O)CN(c1ccc([N+](=O)[O-])cc1)S(=O)(=O)c1ccccc1	1.4	0.3	0.71	0.4	-4	u	-0.4
CNC(=O)OCCSCCS(=O)(=O)c1ccc(Cl)cc1	-1.0	3.1	0.68	-1.6	2	12%	3.3
Cc1ccc(S(=O)(=O)c2ccc(Cl)cc2)cc1S(N)(=O)=O	-8.6	1.9	0.65	-0.6	-17	x	-2.8
COc1ccccc1C(=O)NC(=S)Nc1ccc(N2CCN(C(=O)c3ccco3)CC2)cc1	-1.7	5.8	0.71	1.7	9	x	2.0
CCOC(=O)Cn1c(=O)oc2cc(S(=O)(=O)N(C)Cc3ccccc3)ccc21	4.2	0.2	0.71	0.3	0	-6%	6.9
COc1ccc(NC2=NC3(CCCCC3)N=C(N)N2)cc1	-0.2	-2.9	0.69	-0.1	-9	29%	0.4
COc1ccc(-c2nnnn2C)cc1S(=O)(=O)NCCc1ccccc1	4.2	-1.8	0.72	0.6	-12	x	2.1
CC(C)c1ccc(Nc2nnc(SCC(=O)Nc3ncc(S(=O)(=O)c4ccc([N+](=O)[O-])cc4)s3)s2)cc1	3.0	1.9	0.66	u	1	u	2.2
Cc1cc2ncn(C(=O)c3c(-c4c(Cl)cccc4Cl)noc3C)c2cc1C	-4.6	0.2	0.74	-0.1	8	1%	5.9
COC(=O)c1ccccc1NC(=O)CN1CCC(n2nnc3cc(C(F)(F)F)ccc32)CC1	1.2	-0.9	0.76	0.4	-6	3%	2.6
C=CCn1c(C2CC(=O)N(c3ccc(C)cc3)C2)nc2ccccc21 (stereo not given)	-0.5	4.5	0.68	0.1	-3	u	-0.1
C=CCSc1nc(N)c(C(=O)Nc2ccccc2OC)cc1C(=O)Nc1ccccc1	2.3	-160	0.71	-0.7	-4	18%	-2.5
CCCN(CCC)CCNC(=O)C1CCCN(S(=O)(=O)c2ccc3c(c2)oc(=O)n3C)C1 (stereo not given)	0.5	-0.3	0.66	-0.3	-4	-2%&-5%	0.3
COc1cc(S(=O)(=O)Nc2ccccc2C(=O)N2CCCC2)ccc1NC(C)=O	x	2.5	0.69	x	-3	1%	-5.2
COC/C=C/C1=CC2=CC(=O)C(C)(OC(=O)c3cnc4ccccc4n3)C(=O)C2=CN1C(CO)CO (stereo not given)	3.2	6.1	x	0.3	-4	19%	0.4
C#CCNC(=O)C1=C[C@H](c2cn(C(C)=O)c3ccccc23)[C@@H](CCCO)[C@H](OCC)O1	-3.4	3.9	x	2.3	-1	-6%	-0.8
CSc1nc2ccccc2c(=O)n1C1CCOC(C)(C)C1 (stereo not given)	3.7	0.9	0.6	0.3	-3	-6%	-0.1
Fc1ccc(-[n+]2nc(Nc3ccccc3)sc2-c2cccc(Cl)c2Cl)cc1	-6.3	x	x	0.1	0	x	0.1
CC(=O)Nc1ccc(Oc2cc(C#N)c(C#N)cc2N2CCOCC2)cc1	1.7	-3.7	0.75	-0.3	-4	-1%	1.3
CCC(C)N(C(=O)CCC(=O)Nc1cc(C)on1)C(C(=O)NC(C)(C)C)c1ccccc1Cl (stereo not given)	7.4	-0.5	0.66	-0.8	-11	x	1.0
CCN(C(=O)COC(=O)c1cc(S(=O)(=O)N2CCc3ccccc32)ccc1OC)C1CCS(=O)(=O)C1 (stereo not given)	-2.1	1.6	0.7	-0.8	7	24%	-0.3
CN1C(=O)CSc2ccc(C(=O)O)cc21	-3.5	-0.1	0.72	-2.5	4	u	2.0
CCCCCCC(=O)N=Nc1c(O)[nH]c2ccc([N+](=O)[O-])cc12	7.8	1.1	0.7	-0.1	-2	x	-2.0
CCCS(=O)(=O)N1CCC(C(=O)NCCCOC)CC1	-7.6	5.6	0.71	0.1	-3	6%	-2.5
COc1cccc(OCCCCCCN2CCOCC2)c1	6.2	-5.2	0.73	-1.0	6	-2%	0.3
Cn1c(CN2CCCCC2)nc2cc(NC(=O)c3cccc(Br)c3)ccc21	5.8	1.7	0.66	-0.7	5	-1%&1%	1.1
CC1CCCN(CCOCCSc2ccccc2)C1 (stereo not given)	3.4	0.9	0.68	-0.1	0	-3%	2.9
CCn1cnc2scc(-c3ccc(OC)cc3)c2c1=O	0.4	-5.1	0.71	-0.3	-11	x	2.4
CCc1ccc(OCC(=O)N/N=C/c2cc([N+](=O)[O-])ccc2N2CCCCCC2)cc1	2.6	x	x	-0.4	7	u	4.8
COC(=O)CN1C(=O)COc2ccc(S(=O)(=O)N3CCCCCC3)cc21	2.2	3.5	0.71	-0.4	-2	x	3.8
COc1ccc(C(=O)N2CC3(C)CC2CC(C)(C)C3)cc1OC (stereo not given)	-0.2	5.3	0.76	-0.3	-2	-1%	0.7
O=C(CCOc1ccccc1)Nc1ccccc1F	9.2	3.8	0.66	-0.8	-13	-4%	-5.1
O=C(NNc1nc(N2CCCC2)nc(N2CCCC2)n1)c1ccccc1	x	x	x	x	-6	-3%	2.8

Entries of single compounds, looked up by structure. Order of values: LANA-H2B inh, UCH37 DUB inh, E coli growth, A1 inh, Beta2AR agonist, Vif TR-FRET, HNF4A DNA FP
Entry for `C=CCSc1nc(N)c(C(=O)Nc2ccccc2OC)cc1C(=O)Nc1ccccc1` → 2.3, -160, 0.71, -0.7, -4, 18%, -2.5
Entry for `CC(C)c1ccc(Nc2nnc(SCC(=O)Nc3ncc(S(=O)(=O)c4ccc([N+](=O)[O-])cc4)s3)s2)cc1` → 3.0, 1.9, 0.66, u, 1, u, 2.2

Next part:
SMILES	LANA-H2B inh	UCH37 DUB inh	E coli growth	A1 inh	Beta2AR agonist	Vif TR-FRET	HNF4A DNA FP
COc1ccc(N(CC(=O)N2CCOCC2)S(C)(=O)=O)cc1	-0.1	0.5	0.65	-0.4	1	x	-3.9
CCC1(CC)NC(=S)N(Nc2ccccc2)C1=O	-3.8	1.2	0.71	1.2	2	-6%	-2.4
COCCNC(=O)c1cccc(C)c1[N+](=O)[O-]	-1.4	5.3	0.68	-2.5	-6	x	-0.3
CC(=O)c1cccc(NC(=O)NC2CC3CCCC(C2)N3CC(C)C)c1 (stereo not given)	-1.6	-0.7	0.68	0.2	-4	-1%	0.6
CCCc1nc(SCC(=O)Nc2nnc(CC)s2)c2c(=O)n(C)c(=O)n(C)c2n1	1.5	3.6	0.72	-0.1	-6	x	3.2
COc1ccc(C2=NS(=O)(=O)N(C)C(C(=O)NCc3ccc(F)cc3)=C2)cc1OC	0.9	3.0	0.69	-0.9	-15	x	-0.5
Cc1cccc(C)c1NS(=O)(=O)c1ccc2c(c1)C(=O)c1ccccc1C2=O	-1.2	4.2	0.67	-1.5	-1	x	-0.5
CCCCCC(=O)NC(=S)NC1C2CC3CC(C2)CC1C3 (stereo not given)	7.4	6.1	0.66	0.8	2	9%	-1.7
O=C(CSCc1cc(=O)[nH][nH]1)Nc1ccc(F)cc1	18*	-0.6	0.63	1.5	-4	-7%	-4.2
Cc1cc(C)c2c(=O)[nH]c(SCC(=O)c3ccc(C(C)C)cc3)nc2n1	-0.4	-1.7	0.75	0.1	4	3%	0.6
Cc1cccc(NC(=S)N(Cc2cccc(Br)c2)CC2CCC(C(=O)O)CC2)c1 (stereo not given)	-0.9	0.8	0.71	u	0	24%	3.0
Cc1ccc(-c2nc(CSc3nc4ccccc4c(=O)n3CCO)cs2)cc1	2.3	3.4	0.72	0.1	4	-1%	1.5
Cc1cc(C)c2c(CN3CCN(C/C=C/c4ccccc4)CC3)cc(=O)oc2c1	2.6	1.5	0.66	0.5	3	-3%	1.3
O=C(CNc1cccc(S(=O)(=O)N2CCOCC2)c1)Nc1cccc(Br)c1	1.1	5.9	0.68	-0.5	6	4%	1.9
O=C1CCC(C(=O)Nc2cccc(S(=O)(=O)Nc3ccccc3F)c2)=NN1	1.0	0.3	0.68	-0.6	-1	3%	8.2
Cc1ccc(NC(=O)CSCc2cc(=O)n3ccsc3n2)cc1	-1.7	0.4	0.64	-0.8	9	-1%	0.6
CCC(C)(C)NC(=O)C(OC(=O)c1ccco1)c1ccccc1F (stereo not given)	2.7	6.0	0.65	0.4	-3	x	-2.3
O=C(Nc1ccccc1)C1=C[C@H](C2CC2)C[C@H](OCCCCO)O1	1.6	3.6	0.81	-0.1	-13	x	-5.6
CCOC(=O)[C@H]1[C@H]2COc3cc(OC)ccc3[C@@H]2N2C(=O)N(c3cccc(Cl)c3)C(=O)[C@@]12C	0.0	-0.5	x	0.7	4	x	1.1
O=C(CN1CCN(c2ncccn2)CC1)N1CCCC1	-3.6	2.2	0.68	0.1	-2	x	6.7
COc1ccc(S(=O)(=O)N2CCOCC2)cc1NC(=O)CCOc1ccc(C(C)(C)C)cc1	x	0.0	0.64	x	8	3%	2.7
COc1cc2c(cc1OC)C(=O)Cc1ccc3c(c1CN(C)CC2)OCO3	-1.0	1.7	0.72	-1.2	4	-8%	-1.6
COc1ccc(C)cc1NC(=O)c1cccc(C(=O)Nc2cc(C)ccc2OC)c1	3.8	0.0	0.72	-1.0	4	4%	-0.2
CCOC(=O)C(NC(C)=O)(Nc1ccc(S(=O)(=O)Nc2ccncn2)cc1)C(F)(F)F (stereo not given)	6.1	2.1	0.78	1.3	13	4%	-1.1
S=c1[nH]nc(COc2ccc(Cl)cc2)n1Cc1ccco1	-1.3	7.1	0.71	-0.5	-4	x	5.8
CS(=O)(=O)c1ccc(C(=O)Nc2cc(-c3ccccc3)nn2-c2ccccc2)cc1	0.8	1.9	0.7	2.0	-14	x	-1.2
